# VDR inhibitor: inhibitors of human vitamin D receptor; P11473; VDR-SRC2-3 peptide fluorescence polarization, 2 h; Potency, µM, inactives show max response, negative = inhibition, hits mostly inhibitors; 400,000 tested, 0.93% active; AID 504847; active = well fitted inhibition curve with a large enough effect; inconclusive = small, poorly fitted or top-dose-only effect, or another doubt; inactive = no such curve, though single readings can be large or run the other way; also: series mostly up to about 120 µM
# Target sequence (P11473 whole entry, looked up): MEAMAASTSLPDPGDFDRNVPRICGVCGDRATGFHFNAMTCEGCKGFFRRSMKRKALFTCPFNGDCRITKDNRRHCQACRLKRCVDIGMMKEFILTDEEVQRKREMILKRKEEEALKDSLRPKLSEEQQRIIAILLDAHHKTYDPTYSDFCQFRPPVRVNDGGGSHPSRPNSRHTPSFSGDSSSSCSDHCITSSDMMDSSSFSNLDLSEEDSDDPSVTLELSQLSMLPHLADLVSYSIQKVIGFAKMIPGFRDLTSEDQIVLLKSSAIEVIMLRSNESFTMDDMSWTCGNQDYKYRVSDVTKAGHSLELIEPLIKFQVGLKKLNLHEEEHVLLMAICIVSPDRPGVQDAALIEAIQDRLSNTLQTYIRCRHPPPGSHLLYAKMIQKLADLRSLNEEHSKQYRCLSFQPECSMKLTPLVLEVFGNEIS
#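 VDR–SRC2-3 interaction, FP format. Cmpds 23 nl via pintool, brief spin, 2 h ambient incubation.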
# * hit, by the source's call; ? = inconclusive; & = joins results of further samples. % is scaled to controls: 0 for no effect and ±100 for the full control effect; potency is read from the fitted curve at half-maximal effect. Only part of the results is shown. The share of hits here may be higher or lower than overall.
compound	VDR inhibitor
O=C(COC(=O)CCN1C(=O)C2CC=CCC2C1=O)Nc1ccc(Cl)cc1F (stereo unspecified)	7%
CCOC(=O)C(C)c1c(C)[nH]c(=S)[nH]c1=O (stereo unspecified)	-12%
O=C(O)c1ccccc1-c1ccccc1C(=O)NNc1ccccc1	?
CS(=O)(=O)OCCCCOS(C)(=O)=O	-2%&3%&-16%
COc1cccc(/C=C/C(=O)NCc2cn3cc(Cl)ccc3n2)c1OC	-3%
O=C(Nc1cccc(-c2cscn2)c1)C1CCN(Cc2ccccn2)CC1	7%
CCOc1ccc(N(C(=O)c2cnsn2)C(C(=O)NC2CCCCC2)c2ccncc2)cc1 (stereo unspecified)	-4%
CCOC(=O)/C(=N/Nc1ccccc1)Sc1nnnn1-c1ccc(C)cc1	-16%

# Next part
compound	VDR inhibitor
Cc1cc(-c2n[nH]c(=S)n2/N=C/c2cc([N+](=O)[O-])ccc2Cl)n[nH]1	-14%
O=[N+]([O-])c1ccccc1S(=O)(=O)c1ccccc1[N+](=O)[O-]	-3%
CCNC(=O)CC1SC(=Nc2ccc(C)c([N+](=O)[O-])c2)N(C)C1=O (stereo unspecified)	-18%
Cc1ccc(-n2nc3c(c2NC(=O)c2ccc(Br)o2)CSC3)c(C)c1	6%
O=C(COC(=O)/C=C/c1ccccc1)Nc1cc(C(F)(F)F)ccc1N1CCOCC1	-1%
CCCOc1ccc(-c2cccc(NS(=O)(=O)c3cc(OC)ccc3OC)c2)nn1	5%
CC12CC3CC(C)(C1)CC(C(=O)N1CCN(C(=O)C4CCCO4)CC1)(C3)C2 (stereo unspecified)	20%
Cc1cccnc1NC(=O)CNC(=O)c1ccccc1	14%

# Additional compounds
compound	VDR inhibitor
O=C(CN(c1ccc2c(c1)OCCO2)S(=O)(=O)c1ccccc1)NCc1ccco1	-27%
Cc1cc(NC(=O)C2CCC2)n(-c2ccccn2)n1	15%
COC(=O)CSc1nnc(-c2ccccn2)n1Cc1ccco1	-13%
O=C(Nc1nnc(SCC(=O)N2CCOCC2)s1)C1CC(=O)N(c2ccc(F)cc2)C1 (stereo unspecified)	-9%
Cc1ccc(-n2cnnn2)c(S(=O)(=O)N2CCOCC2)c1	-3%
COc1ccccc1Nc1nc(N(C)c2ccccc2)nc(N)c1[N+](=O)[O-]	5%
CCC(=O)N1c2ccc(S(=O)(=O)NCc3ccco3)cc2CC1C (stereo unspecified)	-11%
O=C1C(CO)C(CO)C(CO)C1CO (stereo unspecified)	-16%

# Grouped by structure: those above containing a carbonyl joined to an NH by a bond outside any ring (12)
compound	VDR inhibitor
O=C(COC(=O)CCN1C(=O)C2CC=CCC2C1=O)Nc1ccc(Cl)cc1F (stereo unspecified)	7%
O=C(O)c1ccccc1-c1ccccc1C(=O)NNc1ccccc1	?
COc1cccc(/C=C/C(=O)NCc2cn3cc(Cl)ccc3n2)c1OC	-3%
O=C(Nc1cccc(-c2cscn2)c1)C1CCN(Cc2ccccn2)CC1	7%
CCOc1ccc(N(C(=O)c2cnsn2)C(C(=O)NC2CCCCC2)c2ccncc2)cc1 (stereo unspecified)	-4%
CCNC(=O)CC1SC(=Nc2ccc(C)c([N+](=O)[O-])c2)N(C)C1=O (stereo unspecified)	-18%
Cc1ccc(-n2nc3c(c2NC(=O)c2ccc(Br)o2)CSC3)c(C)c1	6%
O=C(COC(=O)/C=C/c1ccccc1)Nc1cc(C(F)(F)F)ccc1N1CCOCC1	-1%
Cc1cccnc1NC(=O)CNC(=O)c1ccccc1	14%
O=C(CN(c1ccc2c(c1)OCCO2)S(=O)(=O)c1ccccc1)NCc1ccco1	-27%
Cc1cc(NC(=O)C2CCC2)n(-c2ccccn2)n1	15%
O=C(Nc1nnc(SCC(=O)N2CCOCC2)s1)C1CC(=O)N(c2ccc(F)cc2)C1 (stereo unspecified)	-9%

# Going on with the list.
compound	VDR inhibitor
COc1cccc(Cn2c(-c3cccs3)noc2=O)c1	-18%
CCOc1ccccc1NC(=O)CSc1nnc(N)s1	6%
Cc1ccc2cc(C(c3nnnn3Cc3ccccc3)N3CCN(c4ccccc4)CC3)c(=O)[nH]c2c1 (stereo unspecified)	-14%
C=CCNC(=S)NNC(=O)c1ccc([N+](=O)[O-])cc1	20%
COc1cc(NS(=O)(=O)c2ccccc2)ccc1-n1nc(C)cc1C	11%
COc1ccc(NC(=O)CN2C(=O)CSC(C)C2=O)c(OC)c1 (stereo unspecified)	-3%
CNc1oc(/C=C/c2cc(OC)c(OC)c(OC)c2)nc1C#N	-1%
O=C(CCCn1cnc([N+](=O)[O-])n1)Nc1cc(Cl)ccc1O	19%

# Additional results
compound	VDR inhibitor
CCCC(C)NC(=O)c1sc2nc3n(c(=O)c2c1C)CCC3 (stereo unspecified)	-3%
CC(=O)c1ccc(NC(=O)Cn2nc(N3CCN(c4ccccc4)CC3)ccc2=O)cc1	8%
Cc1cc(C)cc(C(=O)OCC(=O)NC(=O)NC2CCCC2)c1	2%
Cc1sc2nc(SCC(=O)N(C)C)[nH]c(=O)c2c1C	7%
C[C@H]1CNC(=O)C(=O)N1C[C@H](Cc1ccc(O)cc1)NC(=O)CC12CC3CC(CC(C3)C1)C2	19%
O=C1NCCCC1C(=O)N/N=C/c1ccccc1 (stereo unspecified)	1%
CC1Cc2ccccc2N1Cc1ccc([N+](=O)[O-])cc1 (stereo unspecified)	-6%
CCCNC(=O)N1CCC(C(=O)c2ccc(Cl)cc2)CC1	21%

# More compounds follow.
compound	VDR inhibitor
Cc1ccc2cc3cc(C(=O)N4CCN(c5ccccc5)CC4)oc3nc2c1	-3%
Cc1ccc2cc(CN(Cc3ccco3)Cc3nnnn3Cc3ccco3)c(=O)[nH]c2c1	-18%
N#Cc1cccc(NC(=O)Cn2c3[n+](c4ccc(C(F)(F)F)cc42)CCCCC3)c1	18%
CCOC(=O)c1c(NC(=O)COc2cc(C)ccc2C(C)C)sc(C)c1C	40µM*
CCOc1nnc(C)c2c(C)n(-c3cccc(OC)c3)nc12	-1%
CCOC(=O)c1c(S(=O)(=O)NCC(=O)NCc2ccc(C)cc2)c(C)n(C)c1C	3%&9%
O=C(CCN1C(=O)CSC1=O)Nc1ccccc1	16%
COc1ccc(NC(=O)COC(=O)CN2C(=O)C3CCCCC3C2=O)cc1OC (stereo unspecified)	9%

# (cont.)
Compound,VDR inhibitor
Cn1c(=O)c2c(ncn2CC(O)CO)n(C)c1=O (stereo unspecified),9%
O=C(NCCc1nccs1)C1CCC(=O)N(CCc2ccc(Cl)cc2)C1 (stereo unspecified),-12%
O=C(CN1CCOCC1)Nc1ncc(Cc2cccc(Cl)c2)s1,0%
N[C@@H](CO)c1nnc([C@H](CC(=O)O)NC(=O)C2CCNCC2)o1,-6%
NC(=O)N/N=C1\c2ccccc2-c2c(C(N)=O)cccc21,6%
O=C1C(=O)N(CCN2CCOCC2)C(c2cccnc2)/C1=C(/O)c1ccc(Cl)cc1 (stereo unspecified),20%
CCC1=Nc2cc(C(=O)NCCc3ccc(OC)c(OC)c3)ccc2Sc2ccccc21,-3%
Cc1cc(-c2nnc3n2N=C(C(C)(C)C)CS3)n[nH]1,-5%
Cc1cccc(NC(=O)N2CCC(CN3CCC(C)CC3)CC2)c1C,15%
CN(C(=O)c1ccc(S(=O)(=O)N2CCOCC2)cc1)C1CCS(=O)(=O)C1 (stereo unspecified),-14%
Cc1ccnc2nc(C(=O)OCC(=O)N(CC(C)C)C3CCS(=O)(=O)C3)nn12 (stereo unspecified),0%
O=C(c1ccc(Cl)c(S(=O)(=O)N2CCCC2)c1)N1CCN(c2ncccn2)CC1,5%
O=C(c1ccc(Br)s1)N1CCN(c2ncccn2)CC1,-11%
COc1ccccc1/C=N/NC(=O)c1ccc(NC(=O)c2ccccc2Br)cc1,2%
CCOCCCNC(=O)c1ccc2nc(-c3ccc(OC)c(OC)c3)c(-c3ccc(OC)c(OC)c3)nc2c1,6%

# (cont.)
Compound,VDR inhibitor
O=C(O)CSCC(=O)NC1CCCc2ccccc21 (stereo unspecified),-16%
CC1=CCC2C(=O)N(c3ccc(C)c(Br)c3)C(=O)C2C1 (stereo unspecified),5%
COc1ccc(NC(=O)C2CCN(C(=O)C3CC(=O)N(c4ccc(C)cc4)C3)CC2)c(OC)c1 (stereo unspecified),26%
COc1cccc(C(=O)Oc2c(Sc3ccc(C)cc3)c(C)nn2C(C)(C)C)c1OC,-13%
Cc1ccc(Cn2nnc3c(=O)[nH]c(C4CCCN(S(=O)(=O)c5ccccc5F)C4)nc32)cc1 (stereo unspecified),-17%
CC(=O)Nc1ccc(S(=O)(=O)NC2(C(F)(F)F)C(=O)Nc3c2c(=O)[nH]c(=O)n3Cc2cccnc2)cc1 (stereo unspecified),11%
CC(=O)Nc1nc2ccccc2n1CCOc1ccccc1Cl,4%
COc1ccc(S(=O)(=O)N2CCC(C(=O)NC3CCCC3)CC2)cc1OC,-12%
O=C(N/N=C/c1ccc([N+](=O)[O-])cc1)c1cccs1,-18%
O=C(CSCc1ccc([N+](=O)[O-])cc1)Nc1cccc(C(=O)Nc2ccccc2C(=O)O)c1,8%
Cc1cc(C)n(CCCNC(=O)c2cc(COc3ccc(C)c(C)c3)on2)n1,10%
Cc1ccc(-c2csc(NCCn3c(C(F)(F)F)nc4ccccc43)n2)cc1,3%
COc1cccc(NC(=O)N2CCN(c3cccc(C)c3)C(C)C2)c1 (stereo unspecified),8%
CCOC(=O)C(C)n1nc(/C=C/c2ccccc2)ccc1=O (stereo unspecified),14%
COc1ccc(N2CCN(Cc3nc4c(c(=O)[nH]c(=O)n4C)n3Cc3cccc(Cl)c3)CC2)cc1,-17%

# Next part
Compound,VDR inhibitor
O=C(NCc1ccccc1Cl)c1cccc(NC(=O)c2ccccc2)c1,-6%
COc1ccc(F)cc1S(=O)(=O)Nc1ccc2c(c1)OCO2,24%
CCOC(=O)C=Nc1c(N)n(C)c(=O)n(C)c1=O,-6%
CCOC(=O)C(CCCCCOc1ccc([N+](=O)[O-])cc1)C(=O)OCC,1%
O=C1CCCc2c1ccc1ccccc21,-10%
COCCn1c(SCC(=O)Nc2cc(Cl)ccc2OC)nc2c([nH]c3ccccc32)c1=O,4%
CC(=O)N1CCN(c2ccc(NC(=O)c3ccco3)cc2)CC1,6%
CCOc1ccc(C(=O)N[C@H](C(=O)NNC(=O)c2cccs2)C(C)C)cc1,-17%
Fc1cccc(CSc2ncnc3c2oc2ccccc23)c1,-1%
O=C(CCl)N1CCCC1c1ccc2c(c1)OCCO2 (stereo unspecified),?
CC1CCCN(CC(=O)Nc2ccc(S(=O)(=O)N3CCCC3)cc2)C1 (stereo unspecified),-1%
Cc1ccc(S(=O)(=O)N(C)c2c(C)ccc(S(=O)(=O)Nc3ccncc3)c2C)cc1,-10%
Cc1ccccc1NC(=S)NC(=O)COc1ccccc1C,6%
Cc1ccc(S(=O)(=O)CC(O)CN2CCCC2=O)cc1 (stereo unspecified),-13%
Cc1oc2ncnc(N3CCCCC3)c2c1C(=O)NCC1CCN(Cc2cccc(F)c2)CC1,7%

# Going on with the list:
Compound,VDR inhibitor
CC(=O)N1CCN(C(=O)CNC(=O)c2ccc(C)s2)CC1,0%
Cn1cc(/C=N/NC(=O)c2cc3cc(Br)ccc3o2)c2ccccc21,-26%
COc1cc(/C=N/NC(=O)c2ccccn2)ccc1OC(=O)c1cccs1,9%
CC(=O)Nc1ccc(NC(=O)C(=O)NCC(c2ccco2)N2CCc3ccccc32)cc1 (stereo unspecified),-11%
CC1CCc2c(sc3[nH]c(=S)n(C)c(=O)c23)C1 (stereo unspecified),?
CN1CCN(CCOc2ccc(Cl)c(Cl)c2)CC1,-7%
COc1ccc(OC(C)C(=O)Nc2ccc([N+](=O)[O-])cc2)cc1 (stereo unspecified),7%
Cc1nc2ccc(S(=O)(=O)NC(CC(C)C)C(=O)O)cc2s1 (stereo unspecified),7%
CC(OC(=O)c1ccc(O)cc1)C(=O)Nc1ccc(Oc2ccccc2)cc1 (stereo unspecified),-14%
O=c1c2ccccc2cnn1Cc1n[nH]c(=S)n1-c1ccccc1Cl,-1%
O=C(Cn1nnc(-c2ccccc2)n1)NCc1ccco1,3%
COc1ccc(-c2noc(CCCC(=O)Nc3cccc(Cl)c3C)n2)cc1,10%
C=CCn1c(CNC(=O)c2ccco2)nnc1SCC(=O)Nc1cccc(Br)c1,-1%
COc1ccc(N(Cc2ccc(N(C)C)cc2)C(=O)c2ccc(S(C)(=O)=O)cc2)cc1,-10%
CCOc1cc(CNCc2ccccn2)ccc1OCC(=O)NC(C)(C)C,-16%

# Other results follow.
Compound,VDR inhibitor
CCOCCc1nn2c(=O)cc(COC(=O)c3cccs3)nc2s1,3%
CC(c1ccco1)N(Cc1ccco1)C(=O)Nc1ccccc1 (stereo unspecified),8%
Cc1ccc2cccc(S(=O)(=O)N3CCN(c4ccccc4F)CC3)c2n1,4%
Nc1nc(SCC(=O)Nc2ccc(OC(F)(F)F)cc2)[nH]c(=O)c1NC(=O)c1ccc(Br)o1,-3%
O=C(Nc1ccccc1F)C(c1ccccc1)N1Cc2ccccc2C1=O (stereo unspecified),16%
CN(CC(=O)Nc1ccc(C#N)cc1)Cc1ccc(Cl)cc1Cl,2%
COc1ccc(-c2cc3nc(C)cc(N4CC(C)CC(C)C4)n3n2)cc1 (stereo unspecified),7%
CC(NC(=O)NC12CC3CC(CC(C3)C1)C2)C1CCCO1 (stereo unspecified),15%
C/C(CC(=O)Nc1cccc(Cl)c1C)=N\NC(=O)C(=O)NCC(C)C,8%
CSc1nnc(C)c(=O)n1COC(=O)COc1ccc2ccccc2c1,?
COc1cc(/C=N/NC(=O)CCNC(=O)c2ccccc2Cl)ccc1O,8%
CCSc1nsc(NC(=O)Nc2ccccc2F)n1,0%
O=C(/C=C/c1ccccc1)NCC(=O)N/N=C\c1cccnc1,3%
COc1ccc(NC(=O)c2sccc2OS(=O)(=O)N(C)C)cc1,12%
CN(C)CCN(C(=O)CN1C(=O)c2ccccc2C1=O)c1nc2cc3c(cc2s1)OCO3,-21%
CCOc1ccc(Nc2cc(C)nc3nc(C)nn23)cc1,-4%
COc1cc(C)ccc1OCC(=O)Nc1ccccc1N1CCOCC1,-18%

# Part of the list above, with the structure last:
VDR inhibitor,Molecule
3%,O=C(/C=C/c1ccccc1)NCC(=O)N/N=C\c1cccnc1
12%,COc1ccc(NC(=O)c2sccc2OS(=O)(=O)N(C)C)cc1

# Screening data deposited in PubChem BioAssay by National Center for Advancing Translational Sciences (NCATS).
